LANA-H2B inh = blocks KSHV LANA binding to histone H2A/H2B | inhibition, % (no concentration beside the values) | AID 2629 | cell-free LANA-H2A/H2B peptide, fluorescence polarization | Q9QR71 | hit rate 0.6% among 320,000; in the data active means inhibition mostly above about 10%, no sharp cut-off; inactive means mostly below about 6.7%;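 further: stock transfer was 7.5 nL into about 10 µL; 0% = median of vehicle wells and 100% = median of positive control wells; one replicate is shown; the record names a cut of 25% in any replicate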
HNF4A DNA FP = change in binding of human HNF4 alpha to DNA. P41235. HNF4a-FITC DNA binding, fluorescence polarization, 1 h. activity change, % at 10 µM. hit rate 0.3% among 360,000. AID 1224865; in the data active means activity change above about 30%, passing the limit was not always enough;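 further: controls were the assay level and a saturating level of protein; the project sought stronger binding though the title names inhibitors; some compounds called inactive have numbers as strong as hits; positive values seem to mean higher polarization but the record does not say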
RanGTP-Impb inh = inhibitors of RanGTP-importin-beta interaction, primary screen, biochemical, FRET, CFP-Ran, YFP-importin-beta, homogeneous. cell-free CFP-Ran/YFP-importin-beta FRET ratio. inhibition, % (test concentration not listed). hit rate 1.1% among 300,000;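 active means most replicates above 15%; inconclusive means exactly half above 15%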;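 further: 0% = DMSO wells and 100% = Ran loaded with GDP instead of GTP; wells of about 40 µL received 100 nL stock; the first replicate is given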
B2AR ag = agonists of human beta-2 adrenergic receptor inducing internalization | Am2.2-beta2AR cells, FAP receptor internalization, flow cytometry; reference of the scale not given here | response, % (concentration not given with the values) | hit rate 0.43% among 340,000 | P07550 | AID 504454;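 active means response above a set limit, near 3 SD of response in nonfluorescent compounds, cut at about 42% in these data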;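 further: stock transfer was 100 nL into about 11 µL; a reference agonist was the positive control; negative values mostly stem from fluorescent compounds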
Target sequence (P07550 whole entry, looked up): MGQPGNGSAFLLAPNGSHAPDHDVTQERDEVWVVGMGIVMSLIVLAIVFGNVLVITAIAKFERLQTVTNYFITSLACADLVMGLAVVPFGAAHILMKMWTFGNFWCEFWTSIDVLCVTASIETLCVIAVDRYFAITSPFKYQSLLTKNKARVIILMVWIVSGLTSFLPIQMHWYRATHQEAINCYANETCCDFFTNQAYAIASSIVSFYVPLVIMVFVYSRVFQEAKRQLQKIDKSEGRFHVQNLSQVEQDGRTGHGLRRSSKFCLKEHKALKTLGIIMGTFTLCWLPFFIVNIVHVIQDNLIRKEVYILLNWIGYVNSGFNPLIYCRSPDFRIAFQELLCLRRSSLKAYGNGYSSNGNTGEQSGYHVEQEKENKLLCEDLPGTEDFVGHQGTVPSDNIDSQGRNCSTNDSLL
Calb FLC = affects C. albicans growth with fluconazole | C. albicans CaCi-2 (fluconazole-resistant clinical isolate) + fluconazole, Alamar Blue growth, 48 h | growth inhibition, % (test concentration not listed) | hit rate 0.57% among 300,000;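 active means most replicates above 75%; inconclusive means exactly half above 75%; inactive means most below 75%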;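 further: all wells also contain fluconazole at 8 µg/ml as a sub-toxic cotreatment; 0% = median of DMSO wells and 100% = median of geldanamycin control wells; wells of about 8 µL received 7.5 nL stock; the first replicate is given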
Vif A3G = inhibitors of Vif binding to APOBEC3G peptide, primary screen, biochemical, TR-FRET, GST-Vif 1-94, biotin-A3G peptide, dose response retest (AID 1117319); TR-FRET GST-Vif / biotin-A3G peptide binding; higher % means a stronger effect; test concentration not given here; strong numbers were not always called active; inhibition, %, or IC50 in µM where a hit was titrated; hit rate 0.57% among 260,000;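 active means above the screen mean plus three standard deviations and confirmed in dose response; inconclusive means results disagree or hit not tested in dose response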;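 further: Vif residues 1-94 fused to GST binding biotinylated APOBEC3G peptide 110-148; 0% = full assay without inhibitor and 100% = GST in place of GST-Vif; retest series ran down from 100 µM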
ALR H2O2 inh = human ALR oxidase inhibition via reduced H2O2; P55789; purified ALR, DTT oxidation, H2O2 HRP-luminol luminescence; inhibition, % (no concentration beside the values); hit rate 3.8% among 290,000;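 active means mean and each replicate at 75% or more; inconclusive means only one of the two met; inactive means neither met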;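 further: stock transfer was 7.5 nL into about 7.5 µL; 0% = neutral wells and 100% = wells with inactivated enzyme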
Target sequence (P55789 whole entry, looked up): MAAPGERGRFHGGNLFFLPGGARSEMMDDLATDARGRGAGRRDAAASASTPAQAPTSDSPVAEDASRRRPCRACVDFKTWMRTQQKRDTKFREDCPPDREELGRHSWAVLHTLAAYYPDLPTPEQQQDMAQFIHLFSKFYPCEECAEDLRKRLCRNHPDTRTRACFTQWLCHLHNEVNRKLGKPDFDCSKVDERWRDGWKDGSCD
* marks the source's active call; other numbers are inactive results; u = inconclusive; x = no result given; & = joins results of further samples.

smiles	ALR H2O2 inh	LANA-H2B inh	Vif A3G	Calb FLC	B2AR ag	HNF4A DNA FP	RanGTP-Impb inh
O=C(Cc1csc(Nc2nc(=S)[nH]c3ccccc23)n1)NCc1ccccc1Cl	-6	-1.3	14%	13	3	3.7	0.1
CCOc1ccc(NC(=O)Cn2nnc(C(=O)NCc3ccco3)c2N)cc1	-4	-0.7	2%	-3	3	-1.4	0.0
O=C(O)c1ccccc1NC(=O)c1ccccc1Nc1ccccc1	98*	0.0	-5%	40	-64	-3.3	1.3
O=C(Cn1[nH]c(=O)c2ccccc2c1=O)OCC(=O)c1ccc(F)c(F)c1	6	-3.7	x	x	6	-0.2	x
COC(=O)c1sc(NC(=O)c2cc(-c3ccccc3)nc3ccccc23)c(C#N)c1C	-2	1.2	-8%	1	23	1.6	0.2
CCOCCCN1CN(S(=O)(=O)c2ccc(Cl)cc2)c2nc3ccccc3nc21	-9	1.8	1%	-1	2	7.8	1.2
CC(NC(=O)N(Cc1ccccc1)Cc1ccc2c(c1)OCO2)(C(F)(F)F)C(F)(F)F	0	-4.6	-1%	-25	4	1.7	2.0
COc1ccc(CNC(=S)Nc2ccccc2-c2ccccc2)cc1	-3	5.0	u	-14	-3	1.9	4.2

smiles	ALR H2O2 inh	LANA-H2B inh	Vif A3G	Calb FLC	B2AR ag	HNF4A DNA FP	RanGTP-Impb inh
COc1ccc(CN2CCCC(C(=O)c3ccc4c(c3)OCO4)C2)c(F)c1 (stereo not given)	-1	13	-6%	-28	-2	-1.2	2.9
CCOC(=O)N1CCC(NC(=O)C(Cc2ccccc2)NC(=O)c2ccco2)CC1 (stereo not given)	x	3.4	-1%	3	-1	1.3	1.8
CS(=O)(=O)N1CCN(c2ccccc2NC(=S)NC(=O)c2cccs2)CC1	8	-4.2	x	-5	-10	-0.1	0.9
CC(C)C12CN3CC(C(C)C)(CN(C1)C3(C)C)C2=O	1	-2.6	-5%	-4	1	3.9	4.2
COc1cccc(OCC(=O)NNC(=O)C(=O)N2CCCC2)c1	1	-1.1	7%	-19	-6	3.8	3.8
COc1ccc(-c2ccnc3cc(C(=O)O)nn23)cc1	15	-2.1	14%	-7	4	-0.5	-5.3
CCCC(C)C(=O)Nc1ccc(S(=O)(=O)Nc2nccs2)cc1 (stereo not given)	x	-0.2	-9%	4	-5	-5.3	-1.9
CSCCCNC(=S)N1CCN(c2ccc(C(C)=O)cc2)CC1	11	3.2	17%	-4	-17	0.6	-2.7

smiles	ALR H2O2 inh	LANA-H2B inh	Vif A3G	Calb FLC	B2AR ag	HNF4A DNA FP	RanGTP-Impb inh
CC1=C(C#N)c2nc(N)c(C#N)c(C)c2/C1=C\c1ccc(C)cc1	42	-9.7	29%	11	x	x	0.8
CC(C)=C(NC(=O)c1ccccc1)C(N)=O	x	-0.9	0%	0	1	0.6	3.1
Cc1[nH]c2ccccc2c1Cc1nnc(SCC(=O)NCc2ccco2)o1	u	-1.0	14%	-5	0	0.9	12
CCN(CC)S(=O)(=O)c1cc(NC(=O)c2n[nH]c(=O)c3ccccc23)ccc1C	-12	-1.0	6%	-3	-4	0.6	8.9
O=C(CNS(=O)(=O)c1ccc(Cl)cc1)N1CCN(c2ccc(F)cc2)CC1	x	-5.3	x	x	-1	9.4	x
Cc1ccccc1OCC(O)Cn1c(Br)nc2c1c(=O)[nH]c(=O)n2C (stereo not given)	38	2.0	-9%	-6	-9	4.3	-13
O=C(NC(=S)Nc1ccc(N2CCCC2)cc1)c1ccc(F)cc1	-6	-47	10%	2	-2	2.9	-2.3
S=C(Nc1ccc2nccnc2c1)N1CCOCC1	-22	-2.0	-3%	20	-6	-3.1	-1.7

smiles	ALR H2O2 inh	LANA-H2B inh	Vif A3G	Calb FLC	B2AR ag	HNF4A DNA FP	RanGTP-Impb inh
CCN(CC(=O)Nc1c(F)cccc1F)C(=O)c1cnc(C)cn1	x	-1.2	x	x	-1	-3.1	x
CC(=O)c1c[nH]c(C(=O)NC2CCCCCC2)c1	-4	2.3	-11%	-21	0	2.6	-1.9
CCCC(c1nnnn1C(C)(C)C)N1CCN(Cc2ccccc2)CC1 (stereo not given)	4	-6.1	x	2	0	1.8	0.3
O=C(O)C1C2C=CC(C3CC23)C1C(=O)N1CCc2ccccc21 (stereo not given)	-7	-0.9	22%	-5	-6	1.8	0.2
O=C(Oc1ccc(N2C(=O)C3C4CCC(C4)C3C2=O)cc1)c1ccco1 (stereo not given)	-4	2.6	x	-17	5	-0.6	u
CC(=O)N1CCN(C(=O)c2ccccc2NS(=O)(=O)c2ccc(F)cc2)CC1	-2	2.3	5%	x	-2	-1.5	x
CCCN(CCC)C(C(=O)Nc1cccc(OC)c1)c1ccccc1 (stereo not given)	-4	4.6	-1%	23	19	0.2	-0.2
O=C(C1CCCO1)N(c1cccc(Cl)c1)C1C=CS(=O)(=O)C1 (stereo not given)	5	5.0	30%	-2	5	0.4	9.8

smiles	ALR H2O2 inh	LANA-H2B inh	Vif A3G	Calb FLC	B2AR ag	HNF4A DNA FP	RanGTP-Impb inh
COc1ccc(-n2c(Cc3cccn3C)nnc2SCC(=O)N2CCCC2)cc1	14	2.3	30%	5	-9	-2.0	9.7
NC(=O)c1c(NC(=O)c2cccnc2)sc2c1CCCCC2	11	-1.3	x	1	-7	0.1	1.0
Cc1cc(C)nc(NC(=O)c2ccc(OC(C)C)cc2)n1	0	-2.7	4%	20	-7	-0.6	4.3
CCn1ncc(Br)c1C(=O)NC1CCCCCCC1	-18	4.8	x	-6	-5	2.2	3.6
O=C(Nc1ccc2c(c1)OCO2)c1ccc(Cl)cc1Cl	0	1.8	x	-17	-6	3.1	-1.2
COc1ccc([C@H]2CC(=O)C=C(c3cc(Cl)cc(Cl)c3)C2)cc1	3	3.7	x	x	1	-3.6	x
Cc1ccc(S(=O)(=O)CCN2C=CC(C(F)(F)F)=NCC2)cc1	1	4.1	x	22	12	-2.2	9.5
CCOc1ccccc1-c1cc(-c2ccc(OC)cc2)nc2c1c(=O)n(C)c(=O)n2C	-6	0.9	-6%	u	4	2.1	2.0

smiles	ALR H2O2 inh	LANA-H2B inh	Vif A3G	Calb FLC	B2AR ag	HNF4A DNA FP	RanGTP-Impb inh
CN1C(=S)N2CCCN2C1c1ccccc1 (stereo not given)	2	4.5	11%	6	-7	-0.6	2.0
Cc1c(NC2=NC(C)(C)Cc3ccccc32)c(=O)n(-c2ccccc2)n1C	-3	0.1	-6%	u	4	1.8	-2.0
Cc1ccc(-c2noc(C3CCCCC3)n2)cc1	0	-0.5	19%	-3	1	-0.8	u
COc1ccc(/C=C/C(=O)NCCOc2ccccc2OC)cc1	x	-1.4	4%	0	-20	0.0	0.5
COc1ccc(CCNC(=O)C2(C)CCC(=O)N2Cc2ccc(C)cc2)cc1OC (stereo not given)	-14	5.2	-2%	3	7	2.1	u
C(=N\Nc1ccc2ccccc2n1)/c1ccc2c(c1)OCO2	x	2.0	-7%	-16	2	3.5	-2.7
Cc1c(C(=O)OCC(=O)NCCc2ccc(S(N)(=O)=O)cc2)oc2ccccc12	-5	-1.8	-16%	x	-8	-0.8	x
CC(=O)c1sc(Nc2nc(C)cc(C)n2)nc1C	x	1.3	-11%	37	-13	1.0	-2.6

smiles	ALR H2O2 inh	LANA-H2B inh	Vif A3G	Calb FLC	B2AR ag	HNF4A DNA FP	RanGTP-Impb inh
Cc1ccc(-n2nnc(-c3cnc4ccccc4c3)n2)cc1	-5	2.7	x	-31	-3	5.1	-0.9
O=C(O)c1cc(S(=O)(=O)N2CCN(S(=O)(=O)c3ccccc3)CC2)ccc1Cl	x	1.8	-5%	-5	-14	-0.1	4.8
Cc1ccc(C)c(C(=O)c2ccccc2NC(=O)c2ccccn2)c1	3	1.8	x	12	1	-0.7	7.3
COc1ccccc1OCCn1cc(/C=C(\C#N)C(=O)NCc2cccs2)c2ccccc21	2	3.4	-6%	-10	-7	0.3	0.3
CC(C)CN(CC(C)C)C(=O)CN1C(=O)NC2(CCCc3ccccc32)C1=O (stereo not given)	-3	-0.1	x	4	-7	2.0	-7.0
FC(F)(F)c1nnc(-c2ccccc2)nc1N1CCCC1	-3	0.7	-4%	-9	4	-0.3	3.0
CCOC(=O)c1csc(NC(=O)c2cc(OC)c(OC)c(OC)c2)n1	-14	5.6	5%	x	-2	-1.9	6.2
COc1ccc(-c2nnc(SC(C)C(=O)Nc3ccc4c(c3)OCCO4)o2)cc1 (stereo not given)	-22	1.8	5%	6	-1	1.8	9.8

Entries of single compounds, quoted from the list. Values in the order: ALR H2O2 inh	LANA-H2B inh	Vif A3G	Calb FLC	B2AR ag	HNF4A DNA FP	RanGTP-Impb inh
CCOC(=O)c1csc(NC(=O)c2cc(OC)c(OC)c(OC)c2)n1 is entered as -14	5.6	5%	x	-2	-1.9	6.2
COc1ccc(-c2nnc(SC(C)C(=O)Nc3ccc4c(c3)OCCO4)o2)cc1 (stereo not given) is entered as -22	1.8	5%	6	-1	1.8	9.8

Additional records.
smiles	ALR H2O2 inh	LANA-H2B inh	Vif A3G	Calb FLC	B2AR ag	HNF4A DNA FP	RanGTP-Impb inh
O=C(COC(=O)c1cc(-c2cccs2)nn1-c1ccccc1)Nc1cccc([N+](=O)[O-])c1	-17	-4.5	18%	-3	2	-1.4	-1.9
COc1cc(Br)cc2cc(C(=O)N3CCCCC3C)c(=O)oc12 (stereo not given)	-3	2.7	2%	3	-1	0.3	-2.3
O=C(Nc1ccccc1)OCN1C(=O)c2ccccc2C1=O	x	5.9	-5%	69*	4	-0.8	-1.6
C=CCN(c1ccccc1)S(=O)(=O)c1ccc(Cl)c(C(=O)OCC(=O)NCCCN2CCCC2=O)c1	-17	1.3	-6%	1	-8	-3.7	0.7
N=c1oc2ccccc2cc1C(=O)NC1CCCCCC1	-21	-1.2	x	-6	-8	1.1	1.9
CCOc1ncccc1C(=O)OCC(=O)N1CCN(S(=O)(=O)c2ccc(Cl)cc2)CC1	-9	3.9	5%&-3%	0	1	-2.0	1.3
CC(C)(C)c1cccc(Cn2nnc3ccccc32)c1O	60	2.4	x	-10	22	1.9	3.6
O=C1CC(c2ccccc2)CN1C(=O)c1cncc(Br)c1 (stereo not given)	x	-3.3	4%	3	7	-0.5	2.7

smiles	ALR H2O2 inh	LANA-H2B inh	Vif A3G	Calb FLC	B2AR ag	HNF4A DNA FP	RanGTP-Impb inh
COC(=O)c1cc(S(=O)(=O)NCC2CCN(Cc3ccc(Cl)cc3)CC2)c[nH]1	-8	-3.8	0%	-8	-3	-6.1	5.0
COc1cc(NC(=O)CCCl)cc(-n2cnnn2)c1	-1	0.1	u	-4	-8	-0.8	-1.8
C(=N\Nc1nc2ccccc2[nH]1)/c1ccccn1	x	x	x	-3	-1	4.7	2.7
COc1cccc(CNC(=O)C2CCCN(S(=O)(=O)c3ccc4c(c3)C(C)(C)C(=O)N4C)C2)c1 (stereo not given)	4	0.4	x	-7	-4	-1.7	0.0
Cc1ccc(Cl)cc1NC(=O)c1ccc(Cn2cc(Cl)cn2)cc1	8	-3.7	-1%	-15	2	-0.9	3.1
CC12CCC(=O)N1C(C(=O)Nc1nc3ccccc3s1)CS2 (stereo not given)	-1	-2.5	1%	x	-5	-1.7	x
CCc1ccc(OCC(O)CN2CCC(CN3C(=O)c4cccc5cccc(c45)C3=O)CC2)cc1 (stereo not given)	-24	-7.0	x	-11	0	1.4	4.6
